Screening data from PubChem.
Texas Red fluor: qHTS Assay for Spectroscopic Profiling in Texas Red Spectral Region. max dye-equivalent concentration, M. Compound fluorescence, Texas Red channel, 547/618 nm; stronger effect = higher value. 0.06% of 59,000 active; in the data active = max dye-equivalent concentration above about 10 nM; inconclusive = between about 1.1 nM and that limit
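qHTS profiling of intrinsic compound fluorescence; 100 mM Tris pH 8.0; 15 min RT; ex 547 / em 618 nm; response expressed as Texas Red dye-equivalent concentration from six-point plate standard.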
ERK AVP inh: qHTS Assay for Inhibitors of the ERK Signaling Pathway using a Homogeneous Screening Assay; HEK293-V1b, vasopressin-stimulated pERK AlphaScreen; Potency, µM (series often up to 57.5 µM), inactives show at the highest dose activity, negative = inhibition, actives largely listed as inhibitors; 0.99% of 72,000 active; also: potency is read from the fitted curve at half-maximal effect; % is scaled to controls: 0 for no effect and ±100 for the full control effect; nearly all actives have a fitted effect of over 55% in size
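HEK293 cells stably expressing V1b receptor, seeded overnight in 1% FBS, were treated with compounds for 30 min at 37C, then stimulated 5 min with 25 nM vasopressin; phospho-ERK read by AlphaScreen SureFire after lysis.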
FLuc inh: qHTS Assay for Inhibitors of Firefly Luciferase | Luciferin 4-monooxygenase (Photinus pyralis), P08659 | purified firefly luciferase, luminescence, 8 min | Potency, µM (top dose mostly 57.1 µM), inactives show at the highest dose activity change, negative = inhibition, most hits filed as inhibitors | 2.2% of 72,000 active; also: potency is read from the fitted curve at half-maximal effect; % is scaled to controls: 0 for no effect and ±100 for the full control effect; nearly all actives have a fitted effect of over 40% in size
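Here, luciferase activity is measured as luminescence following an 8 min room-temperature reaction at 10 uM ATP, pH 7.2. Every library sample is titrated.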
Hsp90 Hop PPI: qHTS Assay for Disrupters of an Hsp90 Co-Chaperone Interaction; Hsp90 C-terminal peptide / TPR2A (Hop) interaction, human; AlphaScreen TPR2A-His6 binding biotin-Hsp90 C-terminal peptide; Potency, µM (highest dose often 57 µM), for inactives: at the highest dose activity change, negative = inhibition; 0.44% of 71,000 active; AID 595, 2007; active = well fitted curve in either direction with a large enough effect; inconclusive = small, poorly fitted or top-dose-only effect, or another doubt; also: potency is read from the fitted curve at half-maximal effect; % is scaled to controls: 0 for no effect and ±100 for the full control effect; many of its hits are not listed in these tables
Tau fil binding: qHTS Assay for Tau Filament Binding. Microtubule-associated protein tau (Homo sapiens), P10636. recombinant tau filaments, thioflavin S fluorescence, 15 h; filaments grown with octadecylsulfate alongside compound. Potency, µM (titrated, usually from 57.1 µM), inactives show top-dose activity change, negative = inhibition. 2% of 71,000 active;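 also: potency is read from the fitted curve at half-maximal effect; % is scaled to controls: 0 for no effect and ±100 for the full control effect; actives lower thioflavin S fluorescence by blocking filaments or displacing dye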
Target sequence (P10636 whole entry, looked up): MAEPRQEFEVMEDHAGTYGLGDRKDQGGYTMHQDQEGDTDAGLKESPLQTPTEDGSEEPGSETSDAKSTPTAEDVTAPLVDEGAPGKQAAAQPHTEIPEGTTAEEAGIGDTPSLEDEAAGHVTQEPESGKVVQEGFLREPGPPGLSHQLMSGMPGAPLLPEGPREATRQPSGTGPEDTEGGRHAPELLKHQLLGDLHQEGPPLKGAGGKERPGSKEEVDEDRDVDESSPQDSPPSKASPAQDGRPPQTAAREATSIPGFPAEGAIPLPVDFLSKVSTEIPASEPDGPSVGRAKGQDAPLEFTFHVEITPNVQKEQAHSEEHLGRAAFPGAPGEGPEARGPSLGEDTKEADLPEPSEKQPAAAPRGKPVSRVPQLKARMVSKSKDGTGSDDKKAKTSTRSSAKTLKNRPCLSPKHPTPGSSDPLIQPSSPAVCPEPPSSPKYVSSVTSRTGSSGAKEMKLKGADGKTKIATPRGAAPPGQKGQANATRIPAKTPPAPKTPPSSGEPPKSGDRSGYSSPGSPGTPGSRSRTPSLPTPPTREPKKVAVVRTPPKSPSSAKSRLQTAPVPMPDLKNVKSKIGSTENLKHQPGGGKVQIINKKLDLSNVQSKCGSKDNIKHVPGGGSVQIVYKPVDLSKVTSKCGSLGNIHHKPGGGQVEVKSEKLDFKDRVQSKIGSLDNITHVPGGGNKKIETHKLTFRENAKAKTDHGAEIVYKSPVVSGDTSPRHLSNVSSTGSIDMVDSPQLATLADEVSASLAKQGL
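Recombinant tau protein (human, 1 uM final) plus 30 uM ODS in HEPES pH 7.4 with NaCl, DTT and thioflavine S. Compound present from the start; fluorescence at 510 nm after 15 h, 37 C.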
Rhodamine autofl: qHTS Assay for Spectroscopic Profiling in Rhodamine Spectral Region | Rhodamine-region fluorescence, 547/598 nm, Tris buffer; stronger effect = higher value | max dye-equivalent concentration, M | 0.05% of 59,000 active | AID 594, 2007; in the data active = max dye-equivalent concentration above about 11 nM; inconclusive = between about 1.1 nM and that limit
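Compounds in 100 mM Tris buffer, pH 8.0, were incubated 15 min at room temperature, then read at 547 nm excitation and 598 nm emission. Fluorescence was normalized against a per-plate six-point rhodamine standard curve as dye-equivalent concentration.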
CRE-bla Fsk: Cell signaling CRE-BLA (Fsk stim). 2.5% of 71,000 active. AID 662, 2007. CHO CRE-bla reporter (cAMP response element driving beta-lactamase), forskolin EC10, beta-lactamase ratio. Potency, µM (doses to about 38.2 µM), inactives show at the highest dose activity change, negative = inhibition, usual class: activators; active = well fitted activation curve with a large enough effect in the signal ratio, with a control signal flat, not every such curve was filed as active; inconclusive = small, poorly fitted or top-dose-only effect, or effect the other way, or a change in a side signal; the % refers to the signal ratio; also: potency is read from the fitted curve at half-maximal effect; % of control where 0% means no effect
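CRE-bla CHO reporter cells treated with compound titration plus EC10 NKH 477 (water-soluble forskolin), incubated 3 h at 37 °C; CCF4 loading 2 h at room temperature, 460/530 nm emission ratio read, AC50 values derived for positive or negative modulators.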
ALOX15 inhib: qHTS Assay for Inhibitors of 15-hLO (15-human lipoxygenase) | Potency, µM (highest dose often 57.1 µM), for the others: top-dose activity change, negative = inhibition, actives largely listed as inhibitors | AID 887, 2007 | 1.4% of 74,000 active | Polyunsaturated fatty acid lipoxygenase ALOX15 (Homo sapiens), P16050 | purified 15hLO-1, xylenol orange hydroperoxide absorbance; also: potency is read from the fitted curve at half-maximal effect; % is scaled to controls: 0 for no effect and ±100 for the full control effect; nearly all actives have a fitted effect of over 55% in size
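Inhibition is scored from a chromogenic endpoint. After 15 min enzyme-compound contact, arachidonic acid (50 uM final) reacts 6 min with 40 nM 15hLO-1 at room temperature, then Fe-XO reagent is added for 30 min and absorbance ratio recorded.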
DNA Pol III inh: qHTS Assay for Inhibitors of DNA Polymerase III Holoenzyme System. Potency, µM (doses to about 57.1 µM), without a hit: top-dose activity change, negative = inhibition. 0.25% of 71,000 active. reconstituted DNA polymerase III holoenzyme replication, biochemical; also: potency is read from the fitted curve at half-maximal effect; % is scaled to controls: 0 for no effect and ±100 for the full control effect
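Reconstituted *E. coli* holoenzyme (0.35 nM Pol III, 1 nM beta, 154 nM SSB, 2 nM primase) was preincubated with compound for 15 min at RT. Synthesis on 1.4 nM ssM13Gori ran 35 min, then was stopped with PicoGreen/EDTA and read as dsDNA fluorescence.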
HBB splice mod: qHTS Assay for Modulators of Hemoglobin Beta Chain Splicing | HBB splicing reporter cell assay, activation; EGFP reporter with mutant IVS2-654 intron; response scale: normalised to 500 nM splice-correcting PNA | Potency, µM (top dose mostly 46.1 µM), for the others: at the highest dose activation, usual class: activators | 0.06% of 65,000 active; also: potency is read from the fitted curve at half-maximal effect; 0% is about no effect
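Compounds were applied for 2 days to HeLa EGFP-654 cells, 500/well in Optimem with 2% FCS. The reporter's EGFP is disrupted by mis-splicing of beta-globin intron IVS2-654. Readout: summed well GFP fluorescence from 488 nm laser scanning; reference was 500 nM antisense […] 654 PNA.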
Active calls of the source: *; i = inactive; ? = inconclusive; nt = not tested or not shown; [ ] = dose if it differs, or a comment. Unless noted, calls follow the shape of the dose curve; as a rule, active = well fitted curve in the direction sought with a large enough effect; inconclusive = small, poorly fitted or top-dose-only effect, or another doubt; inactive = no such curve, though single readings can be large; an effect the other way counts as inactive or inconclusive.

Order of results – Texas Red fluor	ERK AVP inh	FLuc inh	Hsp90 Hop PPI	Tau fil binding	Rhodamine autofl	CRE-bla Fsk	ALOX15 inhib	DNA Pol III inh	HBB splice mod
Cc1nn(-c2ccccc2)c2[nH]c(C(F)(F)F)cc(=O)c12
 : i	-9.6%	-0.7%	-3.8%	-5.7%	i	?	-13.2%	-3.6%	-1.6%
Cc1cc(C(=O)Nc2sc(C)c(C)c2C#N)no1
 : i	-11.0%	-19.6%	-5.7%	-6.1%	i	-3.2%	-10.1%	-2.9%	1.0%
CCOc1ccc(C(=O)C(c2ccccc2)N2CCOCC2)cc1 (stereo unspecified)
 : ?	5.4%	-0.1%	-1.0%	-12.2%	i	18.1%	-7.7%	-8.2%	nt
c1ccc(CNc2ncnc3ccc(-c4ccoc4)cc23)cc1
 : i	-6.5%	-1.3%[2.29 µM]	4.6%	-19.6%	i	-19.6%	-7.1%	-5.5%	-1.7%
COC(=O)c1ccc(Sc2ccc(C)cc2)c(N)c1
 : i	42.0%[activator]	-1.9%	6.5%	-12.5%	i	18.6%	?	4.4%	-4.2%[57.5 µM]
N#CC1=C(N)SC(N)=C(C#N)C1C1CC=CCC1 (stereo unspecified)
 : nt	-4.1%	0.7%	-1.7%	4.5%	nt	-4.4%	?	4.3%	-0.6%[9.22 µM]
O=C(Cc1cccs1)NCCn1ccc2ccccc21
 : nt	nt	-0.4%	-5.3%	-7.3%	nt	5.2%	?	-12.3%	-0.4%
COc1ccc(C(=O)Nc2ccc(S(=O)(=O)NC(C)=O)cc2)cc1
 : nt	-24.7%	-6.1%	-1.0%	8.0%	nt	0.4%	-7.5%	0.3%	0.9%
CCC(CC)C(=O)Nc1cc(C)c2c(=O)oc3ccccc3c2n1
 : nt	nt	2.7%	-0.7%	1.0%	nt	-6.9%	-2.0%	-1.1%	0.3%
O=C(c1ccco1)N1C(=O)c2cccc3c(S(=O)(=O)N4CCCC4)ccc1c23
 : i	11.4%	1.5%	?	15.5%	i	-12.7%	-17.1%	?	-1.3%
O=C(Nc1cccc2ccccc12)N1CCOCC1
 : nt	28.9%	2.4%	?	-0.5%	nt	-0.6%	0.2%	3.4%	1.1%
CCCCOc1ccc(/C(O)=C2/C(=O)C(=O)N(CCN(C)C)C2c2ccc(O)c(OC)c2)cc1 (stereo unspecified)
 : i	-6.1%	0.1%	1.8%	-3.6%	i	2.3%	-6.8%	-5.2%	0.2%[0.369 µM]
Cn1cc(S(=O)(=O)Nc2ccc(F)cc2F)c(=O)n(C)c1=O
 : nt	nt	6.3%	-0.1%	-8.4%	nt	?	-21.9%	3.0%	0.2%
CCOC(=O)c1c(NS(=O)(=O)c2cccc(OC)c2)sc2c1CCC2
 : i	20.8%	-1.0%	0.1%	-7.5%	i	6.5%	?	4.8%	-0.2%
CC1Cc2nc(SCC(=O)Nc3ccc4c(c3)OCO4)n(Cc3ccccc3)c(=O)c2S1 (stereo unspecified)
 : i	22.0%	2.0%	-25.3%	24.6%	i	3.3%	-11.1%	-3.0%	2.3%
O=C(NCC1COc2ccccc2O1)C1CCN(S(=O)(=O)c2cccc3nsnc23)CC1 (stereo unspecified)
 : i	-0.1%	-0.6%	-7.1%	-57.9%	i	?	-3.9%	-2.9%	0.1%
CCOc1ccc(OCC(=O)Nc2ccc(S(=O)(=O)Nc3cc(C)nc(C)n3)cc2)cc1
 : i	-10.7%	-1.4%	-10.5%	10.2%	i	-9.7%	-16.2%	-5.6%	-4.7%
CC1CCc2nc(NC(=O)CN3CCOCC3)sc2C1 (stereo unspecified)
 : i	-15.3%	-9.2%	-0.6%	1.3%	i	7.0%	7.2%	6.5%	-0.6%
CCCOc1cccc(C(=O)Nc2cc(NC(=O)c3ccco3)ccc2OC)c1
 : i	-24.3%	-6.5%	-6.2%	17.2%	i	?	-7.7%	-3.8%	nt
Cc1ccccc1OCCCCc1c(C)n[nH]c1C
 : nt	-24.4%	2.2%	-2.9%	-6.7%	nt	18.5%	13.9%	-0.3%	-1.1%
COc1cc(CN2CCC(C(=O)NC3CCCC3)CC2)cc(OC)c1O
 : ?	15.4%	0.7%	-8.5%	6.6%	i	-4.6%	25.1µM*	-2.2%	0.1%[57.5 µM]
c1ccc2c(c1)ncn2Cc1nnc2sc(-c3ccncc3)nn12
 : i	-10.3%	-2.3%	-6.0%	-9.9%	i	?	-27.8%	-6.9%	-2.3%[57.5 µM]
COC(=O)C1=CN(CCCN2CCCC2=O)C=C(C(=O)OC)C1c1cccs1
 : ?	11.8%	-0.4%	0.6%	-8.4%	i	?	11.1%	-3.1%	0.2%[57.5 µM]
CCc1sc(NC(=O)COC)nc1-c1ccccc1
 : ?	-5.3%	-8.4%	-3.7%	-0.4%	i	11.1%	-24.8%	-1.0%	nt
CCc1ccc(NC(=O)c2cc(C)on2)cc1
 : i	8.5%	7.94µM*	4.7%	-6.9%	i	-2.3%	-6.4%	-6.4%	-0.1%
COc1ccc(-n2c(SCC(=O)Nc3cc(C)on3)nc3ccc(O)cc3c2=O)cc1OC
 : i	33.4%[activator]	-0.7%	-1.7%	1.9%	i	?	-13.3%	1.3%	1.6%
Cc1noc(C)c1CSc1nnnn1-c1ccc(Cl)cc1
 : i	-4.8%	6.4%	2.6%	-7.6%	i	?	-10.2%	-0.5%	-3.3%
Cc1ccc(Cn2ncn3c(cc4ccccc43)c2=O)cc1
 : nt	nt	nt	nt	nt	nt	nt	-20.0%	nt	nt
COc1cc(C2/C(=C(\O)c3cc(C)ccc3C)C(=O)C(=O)N2CCN(C)C)ccc1O (stereo unspecified)
 : i	2.5%	3.8%	-8.0%	-6.0%	i	-3.2%	12.0%	-1.4%	nt
COc1ccc(OCC(=O)N2CCN(c3nnc(-c4ccccc4)c4ccccc34)CC2)cc1
 : i	?	-3.0%	-7.4%	20.6%	i	11.7%	-0.9%	-8.4%	-2.2%
COc1nc(-c2ccccc2)cc(-c2ccc(OC)c(OC)c2)n1
 : nt	?	-19.8%	?	171.0%[11.4 µM]	nt	?	-8.7%[11.4 µM]	2.5%[11.4 µM]	1.3%[0.0738 µM]
COc1cccc(Cn2c(=O)cnc3cnc(OC)nc32)c1
 : i	?	1.1%[11.4 µM]	-1.2%	-12.2%	i	2.1%	?	4.4%	0.7%
O=C(CSc1nc2cc(Cl)ccc2s1)c1ccco1
 : i	-6.0%	-3.0%	4.1%	-16.9%	i	?	-4.0%	-3.5%	3.5%
CCNC(=O)c1sc(=S)n(CC)c1N
 : i	12.8%	-5.1%	-3.9%	2.1%	i	35.7%	-24.6%	-4.9%	-2.4%
COc1ccc(-c2cn3c(C)c(C(=O)NCCN4CCOCC4)sc3n2)cc1
 : i	18.7%	-9.8%	-3.9%	-22.3%	i	0.0%	-6.3%	-4.6%	-0.9%
O=C(O)c1cc2cc(OCc3ccccc3)ccc2[nH]1
 : ?	-8.2%	-15.5%	-6.7%	-18.9%	i	-1.3%	-5.0%	1.1%	-6.9%
CC1(C)CC(=O)c2cc(OCC(=O)NCC3CCCO3)ccc2O1 (stereo unspecified)
 : i	-3.5%	-2.4%	-12.7%	0.3%	i	-1.6%	5.3%	-6.3%	-1.7%
Cc1ccc(-n2c(N)c(C(N)=O)sc2=S)c(C)c1
 : i	-17.5%	-6.6%	-6.5%	-6.0%	i	-4.6%	?	-2.1%	2.3%[0.369 µM]
CC1CCC(NC(=O)CC2Oc3ccccc3NC2=O)CC1 (stereo unspecified)
 : nt	-5.7%	0.6%	-0.8%	99.2%	nt	2.5%	6.5%	-0.2%	0.5%
CCNC(=O)CC1C(=O)N(c2ccccc2)C(=O)N1CCc1ccc(OC)cc1 (stereo unspecified)
 : i	3.8%	-1.0%	-8.0%	7.5%	i	?	10.4%	0.0%	-2.2%
Clc1ccc(-n2ncc3c(NCc4ccc5c(c4)OCO5)ncnc32)cc1
 : i	?	-2.0%	0.5%	182.9%	i	?	-8.4%	5.7%	2.5%
COc1ccccc1-c1cc(-n2ccnc2)ncn1
 : i	-2.5%	0.1%[2.29 µM]	1.6%	-4.4%	i	?	-19.1%	0.5%	-0.7%
Cc1c(C(=O)OC2CCCCC2)sc2nc[nH]c(=O)c12
 : i	-13.6%	-0.2%	-11.1%	-13.7%	i	?	-3.7%	-0.2%	-1.4%
CCSc1ccccc1C(=O)n1nnc2ccccc21
 : i	55.3%[activator]	-1.1%	-0.7%	1.8%	i	?	-17.1%	2.9%	-0.3%
CCOC(=O)Cc1csc(NC(=O)c2csc3c2CCCC3)n1
 : i	?	15.8µM*	-0.2%	15.0%	i	?	?	-3.8%	-0.4%

An excerpt, so the mix of outcomes need not match the whole.
